CBX7 inh: inhibitors of human CBX7 binding to H3K27me3 peptide | AlphaScreen His6-CBX7 / biotin-H3K27me3 peptide binding; stronger effect = lower value | normalised signal (fraction of DMSO) (concentration not given with the values) | 1.1% of 66,000 active | AID 1224903; in the data active = normalised signal below about 0.5;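 note: 100 nL library stock added to about 20 µL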
Target sequence (O95931 whole entry, looked up): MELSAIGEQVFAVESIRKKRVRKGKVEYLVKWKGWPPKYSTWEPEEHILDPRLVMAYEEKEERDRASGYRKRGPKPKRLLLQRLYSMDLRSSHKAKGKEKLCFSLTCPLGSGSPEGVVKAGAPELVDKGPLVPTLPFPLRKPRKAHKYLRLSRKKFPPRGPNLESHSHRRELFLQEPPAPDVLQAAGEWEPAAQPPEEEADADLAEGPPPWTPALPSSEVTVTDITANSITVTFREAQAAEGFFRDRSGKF
CBX7 inh z-score: also measured in CBX7 inh; calls as there; z-score; measured here: z-score of CBX7 signal; some inactives read as strong as hits; reference of the scale not given here;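 same signal on another scale; lower means less binding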
* hit, by the source's call. Only part of the results is shown (hit frequency here may not be typical).

Start of the data: the first 2 entries as a preview:
cpd	smiles	CBX7 inh	CBX7 inh z-score
1	CCOc1ccccc1NC(=O)CS(=O)(=O)c1nc(-c2ccccc2)cn1-c1cccc(Cl)c1	0.66	-3.4
2	COc1ccc(Cc2nnc(-c3cccc(C)c3)o2)cc1OC	1	1.1

This part in full (from the top)
cpd	smiles	CBX7 inh	CBX7 inh z-score
1	CCOc1ccccc1NC(=O)CS(=O)(=O)c1nc(-c2ccccc2)cn1-c1cccc(Cl)c1	0.66	-3.4
2	COc1ccc(Cc2nnc(-c3cccc(C)c3)o2)cc1OC	1	1.1
3	COc1ccccc1Nc1nc(-c2ccc(NC(=O)c3ccccc3)cc2)cs1	0.93	-0.8
4	Clc1ccc(-c2noc(COc3ccc4c(c3)OCO4)n2)cc1	1.1	0.96
5	COc1ccccc1N1C(=O)c2ccccc2NC1c1ccncc1 (stereo not drawn)	1	1.6
6	Cc1nc2ncnn2c(C)c1CCC(=O)NC(C)CCc1ccccc1 (stereo not drawn)	1	0.0073
7	COc1ccc2nc(NC(=O)CCc3nc(-c4cccs4)no3)sc2c1	1.1	0.077
8	O=C(CSc1nccn1-c1ccc(Cl)cc1)NCCc1ccccc1	0.88	-2.2
9	COc1ccc(C2CC(C(F)(F)F)n3nc(C(=O)NCCCn4ccnc4)cc3N2)cc1 (stereo not drawn)	1	0.52
10	CCOC(=O)C1CCN(C(=O)C2c3cc(OC)c(OC)cc3C(=O)N3CCc4ccccc4C23)CC1 (stereo not drawn)	1	0.81
11	CCc1nnc(NS(=O)(=O)c2ccc(NC(=O)c3ccc(Cl)cc3)cc2)s1	1	0.27
12	COc1ccc(Cl)cc1S(=O)(=O)NCCc1c(C)[nH]c2ccc(Br)cc12	0.93	-3.5

From compound 4 to 5, as listed above:
cpd	smiles	CBX7 inh	CBX7 inh z-score
4	Clc1ccc(-c2noc(COc3ccc4c(c3)OCO4)n2)cc1	1.1	0.96
5	COc1ccccc1N1C(=O)c2ccccc2NC1c1ccncc1 (stereo not drawn)	1	1.6

The results go on:
cpd	smiles	CBX7 inh	CBX7 inh z-score
13	CN(CC(=O)Nc1ccc(F)c(Cl)c1)S(=O)(=O)c1ccc2c(c1)n(C)c(=O)c(=O)n2C	1.1	1
14	COc1cccc(-n2c(C)nc3c(cnn3-c3ccccc3C)c2=O)c1	1	0.67
15	O=C(NCc1ccccc1Cl)C1CCCN(S(=O)(=O)c2cccc3cccnc23)C1 (stereo not drawn)	1	0.039
16	CCOc1ccc(-c2cn(-c3ccc(Cl)cc3)c(=O)[nH]2)cc1Cl	1	0.058
17	CCn1cc(C(=O)NCc2ccccc2OC)c(=O)c2ccc(C)nc21	0.98	-0.23
18	COc1ccc(OC)c(NC(=O)c2c(NCc3cccc(OC)c3OC)sc3c2CCCC3)c1	0.64	-18
19	COc1ccc(CC(=O)Nc2ccc(-c3noc(COc4ccc(Cl)c(C)c4)n3)cc2)cc1	1.3	3.2
20	CCOC(=O)c1c(NC(=O)c2ccc(F)cc2)sc2c1CC(C)CC2 (stereo not drawn)	1.5	1.4
21	Cc1ccc(NC(=O)C(CC(C)C)N2C(=O)c3ccccc3C2=O)c(C)c1 (stereo not drawn)	1.4	1.8
22	COc1ccccc1-c1cc(C(F)(F)F)nc(NCc2ccc(F)cc2)n1	1.2	8.6
23	COCCNC(=O)c1cc(Nc2ccc(OC)cc2)nc2ccccc12	0.91	-1.1
24	CC(NC(=O)c1cncc(Br)c1)c1ccc(-c2ccccc2)cc1 (stereo not drawn)	0.88	-1.4
25	O=C1CCc2cc(S(=O)(=O)NCc3ccccc3)ccc2N1	0.99	-0.23
26	Cc1onc(-c2ccccc2Cl)c1C(=O)N1CCN(c2cccc(Cl)c2)CC1	1	1.3
27	COC(=O)c1cc2sc(Cl)cc2n1CC(=O)Nc1ccccc1C(F)(F)F	1	0.46
28	CCOC(=O)c1cc(-c2ccc(OC)cc2)n(CCC(=O)Nc2ccc(C)cc2C)c1C	0.95	-1.2
29	COc1ccc(NC(=O)c2onc(C)c2Cl)cc1OC	1	1.7
30	CCCCCc1ccc(-c2ccc(-c3noc(-c4ccccc4Cl)n3)cc2)cc1	1.1	2.5
31	Fc1ccc(-c2nc3ccccc3nc2-c2ccc(F)cc2)cc1	1.5	3.6
32	CCN(CC)S(=O)(=O)c1ccc(Cl)c(C(=O)Nc2nnc(C)s2)c1	1.1	0.96
33	Cc1noc(C)c1S(=O)(=O)N1CCCC(C(=O)NCc2ccc3c(c2)OCO3)C1 (stereo not drawn)	1.3	4
34	COc1ccc(-c2nc3ncccn3c2Nc2ccc(C)cc2)cc1	1	0.76
35	Cc1cc(OC(C)C(=O)Nc2c(C(=O)c3ccccc3)oc3ccccc23)cc(C)c1Cl (stereo not drawn)	1.2	0.56
36	Cc1cccc(CN2CCN(CC(=O)NCCc3ccccc3)C2=O)c1	0.99	-0.23
37	Cc1cc(Nc2ccc(Cl)c(C(F)(F)F)c2)n2ncnc2n1	0.97	-0.67
38	CCCCCN=C1NS(=O)(=O)c2ccccc21	1	1.9
39	COc1ccc2nc(SCC(=O)Nc3ccc(C(C)C)cc3)[nH]c2c1	1	-0.041
40	COc1cccc(-c2nc(S(=O)(=O)c3ccc(C)cc3)c(NCc3ccccc3)o2)c1	0.9	-0.13
41	CCCCCc1c(O)nc(SCCN(CCC)CCC)[nH]c1=O	1.1	1.2
42	Cc1cccc(OCC(=O)Nc2c(C(=O)c3ccc(Cl)cc3)oc3ccccc23)c1C	1.1	0.33
43	CCOC(=O)c1c(NC(=O)C(C)Oc2ccc(F)cc2)sc2c1CCCC2 (stereo not drawn)	1	0.24
44	CCOc1ccc(N2CC(c3nc4ccccc4n3CC)CC2=O)cc1 (stereo not drawn)	0.89	-2.1
45	Cc1ccc(-n2cc(-c3ccccc3)c3c(NCCc4ccc(S(N)(=O)=O)cc4)ncnc32)cc1	0.9	-2.5
46	COc1ccccc1-c1coc2cc(OC(C)=O)ccc2c1=O	1.1	2.2
47	Cc1ccc(C(=O)Nc2cc(-c3nc4ccccc4o3)ccc2C)cc1Cl	1.2	1.6
48	Cc1ccccc1-c1nc2cc(NC(=O)COc3ccc(C(C)(C)C)cc3)ccc2o1	1	1

Sorted by length of the SMILES (highest first): part of the list above
cpd	smiles	CBX7 inh	CBX7 inh z-score
42	Cc1cccc(OCC(=O)Nc2c(C(=O)c3ccc(Cl)cc3)oc3ccccc23)c1C	1.1	0.33
3	COc1ccccc1Nc1nc(-c2ccc(NC(=O)c3ccccc3)cc2)cs1	0.93	-0.8
47	Cc1ccc(C(=O)Nc2cc(-c3nc4ccccc4o3)ccc2C)cc1Cl	1.2	1.6
7	COc1ccc2nc(NC(=O)CCc3nc(-c4cccs4)no3)sc2c1	1.1	0.077
31	Fc1ccc(-c2nc3ccccc3nc2-c2ccc(F)cc2)cc1	1.5	3.6

Next part:
cpd	smiles	CBX7 inh	CBX7 inh z-score
49	COc1cccc(NC(=O)C(NS(=O)(=O)c2ccc3nc(C)sc3c2)C(C)C)c1 (stereo not drawn)	0.85	-2.3
50	COc1ccc(C2C(C(=O)NC3CCCCCC3)CCC(=O)N2c2ccc(OC)cc2)cc1 (stereo not drawn)	1	0.27
51	CCCC(CCC)C(=O)NCCc1cc2c(OC)ccc(OC)c2[nH]c1=O	1.1	2.7
52	CCCN1Cc2cccc(C(=O)Nc3cc(F)ccc3F)c2C1=O	1.1	0.094
53	O=C(NCCCN1CCOCC1)c1cc(-c2ccc(Br)cc2)nc2ccccc12	1	1.4
54	COc1ccccc1-c1nc(S(=O)(=O)c2ccc(Cl)cc2)c(N(C)C)o1	0.97	-0.26
55	Cc1ccc2nc(N3CCN(C(=O)C(F)(F)F)CC3)nc(-c3ccccc3)c2c1	1.5	1.9
56	O=c1c2ccccc2nc(-c2ccccc2F)n1Cc1ccccc1Cl	1.2	4.2
57	Cn1c(SCC(=O)Nc2ccccc2)nnc1-c1c[nH]c2ccccc12	0.97	-0.32
58	CC1=Nc2cc(C(=O)O)ccc2Sc2ccccc21	1.2	2.1
59	Cc1ccc(C)c(NC(=O)c2cnn(-c3ccc(F)cc3)c2C2CCN(C(=O)OC(C)(C)C)CC2)c1	1	0.65
60	Cc1nc(NCCC2=CCCCC2)c2cc(C)sc2n1	1	2
61	Fc1ccccc1CSc1nc2ccncc2n1Cc1ccc(Cl)cc1	1.1	2.3
62	COc1ccc(C2=NOC(C(=O)Nc3ccc4c(c3)OCO4)C2)cc1OC (stereo not drawn)	0.93	-2.7
63	CCCCn1c(=N)n(CC(O)COc2ccc(C)cc2)c2ccccc21 (stereo not drawn)	0.94	-1.8
64	CCC(=O)N1CCc2cc(S(=O)(=O)NCCC(=O)N3CCN(c4ccc(F)cc4)CC3)ccc21	1.1	2.3
65	O=C(Nc1ccc(Br)cc1)c1cc2nc(-c3cccs3)cc(C(F)(F)F)n2n1	1.1	2.9
66	O=C1CCc2cc(S(=O)(=O)N3CCCC3C(=O)NC3CCCCCCC3)ccc2N1 (stereo not drawn)	0.91	-1.2
67	CCN(CC)CCn1c(=N)n(CC(O)COc2ccc(Cl)cc2Cl)c2ccccc21 (stereo not drawn)	0.86	-0.91
68	Cc1ccc(NC(=O)c2nn3c(C(F)(F)F)cc(-c4ccco4)nc3c2Cl)cc1	0.97	-0.4
69	O=C(NCCCN1CCOCC1)c1ccc2c(=O)n(CCc3ccccc3)c(=O)[nH]c2c1	1	0.41
70	Cc1ccccc1Nc1c(-c2c[nH]c3ccccc23)nc2ccccn12	0.93	-1.8
71	COc1ccc(C)cc1-n1c(C)nc2cc(C(=O)NCC(OC)OC)ccc21	0.99	-0.62
72	O=C(Nc1ccccc1-c1nc2ccccc2s1)c1ccc2c(c1)OCCO2	0.88	-0.92
73	Cc1c(C(=O)Nc2ccccc2Cl)oc2ccc(S(=O)(=O)N3CCOCC3)cc12	0.82	-2.5
74	CCCN1CCN(C(=O)c2cn(CC(C)C)c(=O)c3cc(OC)c(OC)cc23)CC1	0.98	-0.77
75	CCc1cccc(C)c1NC(=O)CC1Oc2ccc(C)cc2NC1=O (stereo not drawn)	1	1.5
76	Cc1sc2ncnc(Oc3ccc(NC(=O)c4ccccc4)cc3)c2c1C	1.1	0.28
77	COc1ccc(Nc2cc(C(=O)N3CCN(c4ccccn4)CC3)c3ccccc3n2)c(OC)c1	0.58	-6.5
78	C=CCNC(=O)c1cc(=O)[nH]c2ccc(S(=O)(=O)N3CCCC(C)C3)cc12 (stereo not drawn)	0.97	-0.38
79	Fc1ccccc1-c1nc(Nc2ccc(Cl)c(Cl)c2)c2ccccc2n1	0.98	-0.032
80	CC1CC(C)CN(C(=O)CN2CCN(Cc3ccc(Cl)cc3)C2=O)C1 (stereo not drawn)	0.97	-0.44
81	CCOc1ccc(NC(=O)c2c(Cl)ccc(Cl)c2OC)cc1	1	0.048
82	COc1ccccc1CN1CC(C(=O)N2CCN(c3ccc(F)cc3)CC2)CC1=O (stereo not drawn)	0.99	-0.2
83	Cc1nn(-c2nc3ccccc3n2Cc2ccccc2)c2c1C(=O)CC(C)(C)C2	0.55	-6.3
84	COc1ccc(C(=O)NCC2(c3ccccc3)CCCC2)c(OC)c1	0.89	-1.7
85	COc1ccc(C2=NN(CCC(=O)NCc3ccc(Cl)cc3)C(=O)CC2)cc1	1	0.084
86	O=C(Nc1ccc2c(c1)OCO2)C1CC(c2ccc(F)cc2)=NO1 (stereo not drawn)	1	1.3
87	CCC(=O)N1CCc2cc(S(=O)(=O)Nc3cc(OC)ccc3OC)ccc21	1.5	1.9
88	CCC(C)NC(=O)CCc1c(C)nc2cc(-c3ccccc3)nn2c1C (stereo not drawn)	1.1	2.1
89	COc1ccc(Nc2c(-c3cccc(O)c3)nc3ncccn23)cc1	0.93	-0.27
90	Cc1ccc(CNC(=O)C(NS(=O)(=O)c2ccc3nc(C)sc3c2)C(C)C)cc1 (stereo not drawn)	1.2	2.9
91	CC1=C(C(=O)Nc2cc(C)ccn2)C(c2ccccc2Cl)C2=C(CCCC2=O)N1 (stereo not drawn)	1	0.032
92	CN(c1ccccc1)S(=O)(=O)c1ccc(C(=O)Nc2nc(-c3ccccc3)cs2)cc1	0.87	-2.9
93	CCOc1ccc(-n2c(Cc3cc(=O)[nH]c(=O)[nH]3)nnc2SCC(N)=O)cc1	0.83	-2.7
94	CC1CCN(S(=O)(=O)c2ccc(C(=O)NCCc3ccc(Cl)cc3)cc2)CC1	1.1	1.2
95	COc1cccc(-c2cc(C(=O)NCc3cccs3)no2)c1	1	1.4
96	O=C(CSCc1cnn(-c2ccccc2)c1-n1cccc1)NCc1ccc(Cl)cc1	1.1	3.7

Exported with one line to a screen: part of the list above.
93. CCOc1ccc(-n2c(Cc3cc(=O)[nH]c(=O)[nH]3)nnc2SCC(N)=O)cc1
77. COc1ccc(Nc2cc(C(=O)N3CCN(c4ccccn4)CC3)c3ccccc3n2)c(OC)c1
entry no. | 93 | 77
CBX7 inh | 0.83 | 0.58
CBX7 inh z-score | -2.7 | -6.5

(next part)
cpd	smiles	CBX7 inh	CBX7 inh z-score
97	COC(=O)c1ccc2c(c1)N(C)C(=O)c1ccccc1S2(=O)=O	1	1.2
98	Cc1cccc(NC(=O)CN(C)S(=O)(=O)c2ccc3c(c2)n(C)c(=O)c(=O)n3C)c1	0.94	-2.4
99	Fc1ccc(Nc2nc(-c3ccccc3F)nc3ccccc23)c(Cl)c1	0.76	-2.5
100	COc1ccc(NC(=O)C(c2ccc(OC)cc2)N(C)C(=O)CC2NC(=O)NC2=O)cc1 (stereo not drawn)	0.97	-0.62
101	Cn1c(C(=O)N2CCC(C(=O)NCc3ccc4c(c3)OCO4)CC2)cc2sccc21	0.95	-0.95
102	COC(=O)c1c(NC(=O)c2ccc(S(=O)(=O)N(C)C)cc2)sc2c1CCN(C)C2	1	1.9
103	CCOC(=O)C(C)Sc1nnc(Cc2cc(=O)[nH]c(=O)[nH]2)n1-c1ccc(OC)cc1 (stereo not drawn)	1	0.052
104	CCn1c2ccccc2c2nnc(SCCN3CCCCC3)nc21	0.87	-1.4
105	CC(C)OCCCNC(=O)c1ccc2c(c1)N(Cc1ccc(Cl)cc1)CCS2	1	0.59
106	Cc1nnc(Sc2cc(C(=O)NCCCN3CCCC(C)C3)c3ccccc3n2)s1 (stereo not drawn)	1.1	2.4
107	COc1ccc(CC(=O)NCC2(c3ccc(OC)cc3)CCOCC2)cc1	0.99	-0.27
